Screening data deposited in PubChem BioAssay by National Center for Advancing Translational Sciences (NCATS).
GLA inh pH 4.5 – qHTS Assay for Inhibitors of Human alpha-Galactosidase at pH 4.5 | activity change, negative = inhibition, % at 105 µM | Alpha-galactosidase A (Homo sapiens), P06280 | purified enzyme, 4-MU-alpha-Gal fluorescence, pH 4.5 | 230,000 tested, under 10 active; inconclusive = small, poorly fitted or top-dose-only inhibition, or a rising curve; inactive = flat fitted curve, though single readings scatter; no compound was filed as active;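 note: 0% = full activity with enzyme and -100% = basal without enzyme; dose as in the result columns while the protocol names 77 µM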
Target sequence (P06280 whole entry, looked up): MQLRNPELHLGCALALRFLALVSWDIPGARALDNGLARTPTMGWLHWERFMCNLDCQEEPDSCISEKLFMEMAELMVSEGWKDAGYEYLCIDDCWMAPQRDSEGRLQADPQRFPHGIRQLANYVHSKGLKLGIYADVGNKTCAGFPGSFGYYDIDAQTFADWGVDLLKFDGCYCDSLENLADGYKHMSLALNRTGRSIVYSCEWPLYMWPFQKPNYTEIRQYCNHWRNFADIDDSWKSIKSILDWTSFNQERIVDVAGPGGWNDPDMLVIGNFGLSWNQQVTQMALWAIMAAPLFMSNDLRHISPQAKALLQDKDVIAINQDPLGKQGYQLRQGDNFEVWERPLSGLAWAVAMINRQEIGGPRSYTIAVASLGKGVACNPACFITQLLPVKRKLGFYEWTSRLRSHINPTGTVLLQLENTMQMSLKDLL
Rango complex inh – qHTS Assay for Inhibitors of Rango (Ran-regulated importin-beta cargo) - Importin beta complex formation. Potency, µM (series often up to 92.2 µM), inactives show at the highest dose inhibition of complex formation. Rango CFP/YFP FRET sensor + importin beta, 45 min. Importin subunit beta-1 (Homo sapiens), Q14974. 0.031% of 340,000 active; active = rising FRET ratio curve, often small or poorly fitted; inconclusive = mostly compound fluorescence or quenching in the first reads; inactive = flat curves in all reads;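 note: potency is the fitted concentration of half-maximal effect; 0% = DMSO wells and 100% = buffer wells lacking importin beta; nearly all actives have a fitted effect of over 15% in size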
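FRET biosensor (snurportin 1 IBB flanked by EYFP and cerulean), 50 nM, with compound 5 min, then 0.125 microM importin beta in PBS, 1 mM DTT, 0.02% Tween-20, 0.1% BSA. CFP/YFP ratio read after 45 min at room temperature; pre-read flags interference.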
miR-21 FLuc – qHTS Assay for Modulators of miRNAs and/orActivators of miR-21 | HeLa miR-21 FLuc reporter, luciferase, 48 h | Potency, µM (top dose mostly 38.3 µM), for the others: at the highest dose reporter change, positive = more light | 340,000 tested, under 10 active | AID 2288, 2010; active = well fitted rising curve with a large enough effect; inconclusive = small, poorly fitted or top-dose-only effect; inactive = no such curve, though single readings can be large or run the other way;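 note: % of control where 0% means no effect; miR-21 action dims this reporter so a rising signal means less miR-21 action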
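Luminescence from a firefly luciferase reporter carrying a miR-21 binding site downstream, stably expressed under a CMV promoter in HeLa cells that make miR-21 endogenously, reports miRNA modulation after 48 h compound exposure up to approximately 40uM final.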
Rango dissoc inh – qHTS Assay for Inhibitors of RanGTP induced Rango (Ran-regulated importin-beta cargo) - Importin beta complex dissociation; Snurportin-1 (Homo sapiens) + GTP-binding nuclear protein Ran (Homo sapiens) + Importin …; Biochemical FRET Rango-importin beta, RanGTP-induced dissociation; Potency, µM (highest dose often 46.1 µM), for the others: top-dose activity change, negative = inhibition; 0.071% of 340,000 active; AID 540253, 2011; active means falling FRET ratio curve, often poorly fitted, with flat reads before Ran was added; inconclusive means other falling curves, or compound fluorescence or quenching; inactive means flat or rising ratio curve;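 note: potency is the fitted concentration of half-maximal effect; % of control where 0% means no effect; nearly all actives have a fitted effect of over 45% in size; -100% = wells without RanGTP and RCC1; the record marks most hits as doubtful in a second field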
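Compounds preincubate 5 min with complex of recombinant Rango and importin beta in PBS with 1 mM DTT. Ran (0.6 uM) loaded with 2 mM GTP plus 0.2 uM RCC1 starts dissociation; FRET is recorded 45 min later.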
The depositor's hits bear a star; ? = inconclusive; . = not tested or not shown; & = joins results of further samples. The list is partial; the hit share may differ from the screen's.

GLA inh pH 4.5	Rango complex inh	miR-21 FLuc	Rango dissoc inh	SMILES
-10	-3.7%	-4%	-2%	N#Cc1cccc(C(c2nnnn2C2CCCC2)N2CCC(Cc3ccccc3)CC2)c1 (stereo not given)
-3	-5.6%	-31%	-10%	Cc1nnc(SCc2ccccc2F)n1NCc1cccs1
.	-2.7%	.	-14%	O=C(O)c1cc2cc(S(=O)(=O)O)ccc2cc1O
0	0.8%	-12%	-12%	CSc1ccc(/C=N/NC(=O)CNc2ccc3ccccc3c2)cc1
-10	3.8%	-6%	-10%	COc1ccccc1/C=N/NC(=O)c1cccc(OC(F)(F)C(F)F)c1
10	3.4%	-1%	4%	COc1ccc(OCc2nnc(SCC(=O)O)n2N)cc1
8	-2.5%	5%&1%	1%	CCOc1ccc(NC(=O)CSc2ncnc3c2sc2ccccc23)cc1
.	-1.2%	.	13%	Cc1ccc(NC(=O)CN(C)C(=O)C2CCC2)cc1
.	-2.9%	-1%	1%	COc1ccccc1NC(=O)c1ccccc1Oc1ccccc1
-9	?	-1%	?	COc1cc(OC)c(OC)cc1/C=C1\Oc2cc(OS(C)(=O)=O)ccc2C1=O
7	-0.2%	-1%	-10%	NC1=NC(=O)C(CC(=O)Nc2ccc3c(c2)OCO3)S1 (stereo not given)
.	0.5%	-4%	-7%	COc1ccc(/C=C/C(=O)NC(=S)NNC(=O)[C@H]2C[C@@H]2c2ccccc2)cc1OC
-2	0.0%	-2%	-5%	COc1ccccc1NS(=O)(=O)c1ccc(N/N=C/C=C/c2ccccc2[N+](=O)[O-])c([N+](=O)[O-])c1
.	-0.9%	.	-12%	O=C(COC(=O)CNC(=O)c1ccc(Cl)cc1Cl)NCC1CCCO1 (stereo not given)
.	2.3%	4%	6%	COCCn1c(=S)[nH]c2cc(C(=O)N3CCN(c4cccc(Cl)c4)CC3)ccc2c1=O
-2&1	65µM*	.	8%	Cc1cc(C(C)(C)CC(C)(C)C)ccc1OCCOCC[N+](C)(C)Cc1ccccc1
3	?	-11%	2%	Cc1nn(CC(=O)Nc2ccc3c(c2)oc2ccccc23)c(=O)c2ccccc12
-7	1.4%	7%	2%	COc1ccccc1N1CCN(C(=O)CN(Cc2ccc(Cl)cc2)S(C)(=O)=O)CC1
-8	?	-8%	?	CC(=O)c1cc(NC(=O)c2ccccc2)c(=O)oc1/C=C/N(C)C
.	2.5%	.	4%	C=CCn1c(SCC(=O)NC(=O)Cc2ccccc2)nc2ccccc2c1=O
-6	-2.3%	-20%	-1%	Cc1cccc(NC(=S)N2CCCCCC2)c1
-8	-1.3%	18%	8%	CCCN(CCC)S(=O)(=O)c1ccc(C(=O)Nc2nnc(COC)o2)cc1
.	0.3%	-6%	0%	Cn1c(=O)[nH]c(=O)c2c1nc(N1CCN(C(c3ccccc3)c3ccccc3)CC1)n2CCO
6	?	?	?	CN(C)c1ccc(/C=C(\C#N)c2ccccn2)cc1
.	?	.	34%	COc1ccc(Cn2c(C)nc3c(c2=O)c2nc4ccccc4nc2n3Cc2ccco2)cc1
5	0.2%	-4%	-8%	CCc1ccc2n(-c3ccc(OC)cc3)c([S-])c(C(=O)Nc3cc(C)cc(C)c3)[n+]2c1
3	0.3%	-9%	-2%	CCc1ccc(-c2nc(C)c(CCO)c(=O)[nH]2)cc1
2	4.0%	-2%	18%	N[C@@H](CO)c1cn([C@@H](Cc2cc3ccccc3[nH]2)C(=O)N2CCNCC2)nn1
7	0.2%	2%	11%	COc1ccccc1Nc1nnc(C)c(=O)[nH]1
.	-0.8%	-20%	-14%	COc1ccccc1-n1c(CCC(=O)O)ccc1-c1ccccc1
-6	-0.7%	-1%	-6%	Cc1ccc(C(=O)NNC(=O)c2nn(-c3ccc(F)cc3)ccc2=O)cc1
3	.	-2%	.	NCc1c(O)ccc2ccccc12
-3	2.6%	-4%	0%	Cc1cccc(N2CCN(S(=O)(=O)c3ccc4c(c3)CCN4C(=O)CCC(=O)O)CC2)c1C
8	0.9%	4%	0%	O=C(CSc1ccc2ccccc2c1)Nc1ccncc1
.	-1.0%	-80%	8%	COc1ccc(-c2nnc(-c3ccccc3)o2)cc1OC
.	3.4%	-50%	6%	CC1CCCN(C(=O)CSc2nnc(-c3cccs3)o2)C1 (stereo not given)
.	-0.9%	15%	?	Cc1ccc(/C=C2\SC(=S)N(CCCC(=O)Nc3cc(C)on3)C2=O)cc1
.	0.1%	4%	-17%	COC(=O)CNC(=O)CCC(=O)N1CCN(C(c2ccccc2)c2ccccc2)CC1
6	2.2%	-5%	2%	COc1ccc(CN2CCNC(=O)C2CC(=O)NCCCn2cccn2)c(OC)c1 (stereo not given)
-1	-2.2%	-1%	-12%	CC(C)NC(=O)NS(=O)(=O)c1cnccc1N1CCCCC1
1	1.6%	-23%	13%	O=c1oc2ccccc2c(N2CCCCC2)c1CN1CCCCC1
10	-0.6%	12%	8%	CS(=O)(=O)N1CCN(C(=O)c2cc(-c3cccs3)nc3ccccc23)CC1
3	0.7%	-3%	1%	O=C(CCC(=O)c1cccs1)OCc1nc2ccccc2s1
-9	-1.2%	-4%	-2%	O=C(NCCc1ccco1)c1nn(Cc2ccccc2)c(=O)c2ccccc12
4	-1.9%	-1%	-1%	CCOC(=O)C1(Cc2ccc(OC)cc2)CCN(C(=O)CN2CCN(CC)CC2)CC1

A second format for part of the listing above.
Cc1cccc(N2CCN(S(=O)(=O)c3ccc4c(c3)CCN4C(=O)CCC(=O)O)CC2)c1C
  GLA inh pH 4.5 = -3 | Rango complex inh = 2.6% | miR-21 FLuc = -4% | Rango dissoc inh = 0%

C=CCn1c(SCC(=O)NC(=O)Cc2ccccc2)nc2ccccc2c1=O
  GLA inh pH 4.5 = . | Rango complex inh = 2.5% | miR-21 FLuc = . | Rango dissoc inh = 4%

CC(C)NC(=O)NS(=O)(=O)c1cnccc1N1CCCCC1
  GLA inh pH 4.5 = -1 | Rango complex inh = -2.2% | miR-21 FLuc = -1% | Rango dissoc inh = -12%

COc1ccccc1/C=N/NC(=O)c1cccc(OC(F)(F)C(F)F)c1
  GLA inh pH 4.5 = -10 | Rango complex inh = 3.8% | miR-21 FLuc = -6% | Rango dissoc inh = -10%

(listing goes on)
GLA inh pH 4.5	Rango complex inh	miR-21 FLuc	Rango dissoc inh	SMILES
-15	-0.3%	-3%	-2%	O=C(c1ccccc1Br)N1CCN(c2ccccc2)CC1
0	0.8%	-11%	0%	c1ccc2c(c1)ncn2-c1ncnc2sc3c(c12)CCCC3
-3	3.0%	-9%	9%	Cc1ccc(-c2cc(-c3n[nH]c(=S)o3)c3ccccc3n2)cc1
4	3.9%	-10%	7%	CCCOCC1CC2(CC(C)(c3csc(N)n3)OC2=O)C(=O)O1 (stereo not given)
-5	-0.6%	-1%	18%	O=C(c1cccs1)N(Cc1ccco1)c1nc(-c2ccc(F)cc2)cs1
1	-0.4%	1%	-13%	Cc1cc(=O)[nH]c(/N=C(\N)Nc2ccc3c(c2)OCCO3)n1
0	2.3%	10%	-7%	COc1ccc(CCNC(=S)NCCc2ccc(OC)c(OC)c2)cc1OC
.	3.3%	1%	2%	O=C(NCc1ccccc1F)C1CCCN(S(=O)(=O)N2CCOCC2)C1 (stereo not given)
.	-0.6%	.	5%	O=C(c1cccs1)N1CCN(C(=O)c2cn(-c3ccccc3)nc2-c2ccccc2)CC1
2	-0.6%	-6%	-3%	COc1ccc(NC(=S)N(CCN2CCOCC2)Cc2ccccc2F)cc1
-2	6.9%	-13%	-19%	COc1cc2c(cc1OC)C1=C(C#N)CCC(=NC(=O)c3ccc(Cl)cc3)N1CC2
4	-2.5%	-9%	-2%	COc1ccccc1C(=O)n1nc(-c2cccnc2)nc1N
2	-4.2%	-21%	36%	CCCCCC(=O)Nc1ccc2oc(-c3cccnc3)nc2c1
8	-0.1%	-3%	-5%	CCc1ccc(N(C2C=CS(=O)(=O)C2)S(=O)(=O)c2ccccc2)cc1 (stereo not given)
2	-4.2%	-1%	19%	C=CCN(C(=O)c1ccccn1)C(C(=O)NCc1ccccc1)c1ccccc1F (stereo not given)
.	-4.0%	-1%	1%	CCOc1cc(C(=O)NC2CC(C)(C)NC(C)(C)C2)cc(OCC)c1OCC
-3	-1.9%	-18%	-20%	Fc1ccc(CNc2ncnc3c2cnn3-c2ccccc2)cc1
.	-1.1%	.	-7%	Cc1ccc(C2=CN(Cc3ccccc3)CCC2=O)cc1
3	-1.8%	-38%	?	CN(Cc1ccon1)Cc1cn(C)nc1-c1cccc(Cl)c1
.	-1.4%	-3%	-5%	COc1ccc(-c2cc3c(=O)n(CC(=O)NCc4ccccc4OC)ncn3n2)cc1
-7	-1.0%	19%	7%	Cc1ccc(Cn2ccc(=O)c(OCc3c(Cl)cccc3Cl)c2C)cc1
-1	2.1%	-6%	1%	CCC1CCCCN1CCCNC(=O)c1ccc(CS(=O)(=O)Cc2ccccc2F)o1 (stereo not given)
-20	-1.2%	-3%	7%	Cn1nc([N+](=O)[O-])nc1Sc1ccc(Cl)cc1
.	4.0%	.	-15%	CCOC(=O)[C@H]1[C@H]2COc3ccc(C)cc3[C@@H]2N2C(=O)CN(CC3CCCO3)C(=O)[C@@]12C (stereo not given in full)
-6	-1.9%	-13%	9%	O=C(NNC(=O)c1ccc(Cl)cc1Cl)Nc1ccccc1
-2	-0.7%	0%	8%	COc1ccc(-c2noc(CSc3nc4ccccc4c(=O)n3-c3ccc(C)cc3)n2)cc1
6	0.2%	-6%	-6%	COc1ccccc1OCCCC(=O)NC(C)c1ccccc1 (stereo not given)
5	0.3%	-11%	12%	COc1ccccc1N1CCN(C(=O)COc2cccc(C)c2C)CC1
-2	-5.9%	22%	4%	Cc1cccc(OCC(=O)N2CCN(c3nnc(-c4ccccc4)c4ccccc34)CC2)c1
-21	-3.8%	-4%	-4%	Cc1ccc(C)c(Nc2nc3nonc3nc2N2CCOCC2)c1
-6	-1.9%	12%	8%	O=C(CN1CCN(C/C=C/c2ccccc2)CC1)NC(=O)NC1CCCCC1
-7	2.6%	-15%	0%	CCOc1ccc(-n2cc(C(=O)NCc3ccco3)c3cc(OC)c(OC)cc3c2=O)cc1
.	5.3%	10%	1%	O=S1(=O)CCOC[C@H](CC2CCCCC2)N1Cc1ccccc1Br
10	-2.2%	-1%	-3%	CNC(=O)COC(=O)c1cc(-c2ccco2)nc2ccccc12
4	2.5%	0%	11%	COc1ccc(CC(=O)Nn2c(-c3ccccc3)nc3ccccc3c2=O)cc1
-3	0.4%	-2%	-29%	CC(=O)Nc1ccc2sc(C)nc2c1
.	0.2%	.	4%	COC(=O)C1=C(C(=O)OC)[C@@H]2N(C)c3ccccc3[C@@]23C[C@@H](CO)N(C(=O)c2cccs2)C3=N1
-11	4.3%	-1%	0%	COC(=O)C1=C(C)NC(=O)NC1C1CC=CCC1 (stereo not given)
.	3.0%	.	1%	CC1CC(=O)Nc2ccccc2N1C(=O)CN1C(=O)C(=O)N(C)C1=O (stereo not given)
1	-1.2%	1%	-6%	COc1cc(OC)cc(-c2nn[nH]n2)c1
.	2.1%	.	-10%	O=C(CCS(=O)(=O)c1ccc(F)cc1)Nc1nnc(-c2ccco2)o1
.	-1.5%	5%	25%	CSc1ccc(S(=O)(=O)N2CCC(C(=O)N3CCc4ccccc4C3)CC2)cc1
-1	1.3%	-2%	-4%	C/C(Cc1ccccc1)=N\NC(=O)CNC(=O)/C=C\c1ccccc1
.	0.3%	-12%	0%	COc1ccc(-c2ccc(SCC(=O)NC3CCCCC3)nn2)cc1
.	0.1%	-27%	6%	O=C(NCCN1CCOCC1)c1cc(-c2ccc(Cl)cc2Cl)on1
.	3.6%	6%	-1%	CC1CN(CC(O)COc2ccc(C#N)cc2)CCN1CC(O)COc1ccc(C#N)cc1 (stereo not given)
-1	0.8%	3%	-6%	O=C(NC1CCCCC1)c1cc(-c2ccccn2)nc2ccccc12
